Screens from PubChem.
Biofilm kill mix: clotrimazole potentiators killing C. albicans biofilm, primary screen, 4-compound mixtures. inhibition, % at 7.6 µM. C. albicans biofilm persisters + clotrimazole, fluorescence viability; primary screen in compound mixtures of four per well. 0.02% of 120,000 active;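 active = inhibition above 30.3% in the primary screen of four-compound pools, then above 30% when the compound was retested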;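 note: compounds exposed to preformed 24 h biofilms for 48 h; the number belongs to the whole pool; some results filed as inactive read as strong as hits; inactives centre near 12; 0% = biofilm with clotrimazole alone and 100% = kill control; retested singly at about 60 µM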
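Assay system: C. albicans biofilms / Medium: RPMI/MOPS medium, pH 7.0 / Schedule: biofilm formation 24 h, compound exposure 48 h, 37 °C / Measured by: Alamar Blue fluorescence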
Starred values were filed as active, the others as inactive.

SMILES | Biofilm kill mix
CSc1ncccc1C(=O)Nc1ccc(S(=O)(=O)NC2=NCCCCC2)cc1 | 12
COc1ccccc1CC(Cc1nc2ccccc2[nH]1)c1nc2ccccc2[nH]1 (stereo unspecified) | 18
Cn1cc(/C=N\NC(=O)C2COc3ccccc3O2)c2ccccc21 (stereo unspecified) | 16
CC1(c2ccccc2)CC(C)(C)n2c(O)c(C3=NC(=S)NC3=O)c3cccc1c32 (stereo unspecified) | 25
N/C(=N\OC(=O)CSc1ccccc1)c1cccc([N+](=O)[O-])c1 | -9
O=C(NN1C(=O)C2C3c4ccccc4C(c4ccccc43)C2C1=O)C1CC1 (stereo unspecified) | 31
Nc1ccc(NC(=O)c2cccs2)cc1 | -4
CCN1CCN(c2ncnc3c2c(-c2ccccc2)cn3-c2ccc(F)cc2)CC1 | 18
CCN(c1ccccc1)S(=O)(=O)c1ccc(Cl)c(C(=O)OCC(=O)NC(=O)C(C)C)c1 | 14
O=C(COc1ccc2ccccc2c1)Nc1cccc2c1C(=O)NC2=O | 13
O=C(C1CCN(C2CCN(Cc3ccc4c(c3)CCO4)CC2)CC1)N1CCCC1 | 24
CCN(c1ccccc1)S(=O)(=O)c1ccc(Cl)c(C(=O)NCCc2ccc(OC)cc2)c1 | 13
COc1ccc(-n2cc(-c3ccc(Br)cc3)[nH]c2=S)cc1 | 2
COCCNC(=O)c1ccc2c(c1)CCN2S(C)(=O)=O | 15
COc1cc(C)ccc1OCCOCCOc1cccc2ccc(C)nc12 | 10
CC(=O)Nc1scc(C)c1-c1nc2ccccc2s1 | 25
COc1ccc(-n2c(CN3CCC(C(N)=O)CC3)nc3ccc([N+](=O)[O-])cc3c2=O)c(OC)c1 | 7
Cc1cc(Cl)ccc1Nc1ncccc1C(N)=O | 13
CC(C)(C)c1cc[n+](/C(C(=S)Nc2ccccc2F)=C(/[O-])c2ccc3c(c2)OCCO3)cc1 | 7
Cc1nc2nc(N)nn2c(C)c1C/C=C/c1ccccc1 | 18
O=C(O)c1ccccc1OCc1ccccc1Cl | 15
O=[N+]([O-])c1ccc2[nH]c(O)c(N=NC3CCS(=O)(=O)C3)c2c1 (stereo unspecified) | 16
O=C(/C=C/c1cccs1)Nc1nccs1 | 5
COc1ccc(NC(=O)c2ccc(-n3cccn3)c([N+](=O)[O-])c2)cc1 | -20
CC(=O)NCCCc1nc2ccccc2n1Cc1ccccc1F | 12
CCCOC(=O)c1ccc(NC(=O)c2ccccc2[N+](=O)[O-])cc1 | 10
O=C(O)c1ccc(/C=N/NC(=O)c2ccc(CN3c4cccc5cccc(c45)S3(=O)=O)cc2)cc1 | 12
O=C(Cc1ccccc1)NN1C(=O)C2C3C=CC(C4CC34)C2C1=O (stereo unspecified) | 9
CN(Cc1cccs1)c1nc(-c2cccnc2)nc2ccccc12 | 15
O=c1c2ccccc2nc(/C=C/c2cccnc2)n1CCc1ccccc1 | 14
COc1ccc(CC(=O)OCC(=O)NCCc2ccccc2)cc1OC | 9
O=C1C(=O)N(CCN2CCOCC2)C(c2cccnc2)/C1=C(/O)c1ccccc1 (stereo unspecified) | 12
COC(=O)c1ccncc1N | 21
O=C(O)c1cc(C(F)(F)F)nc2c(C(F)(F)F)cccc12 | 19
COc1cc(NC(=O)c2ccccc2[N+](=O)[O-])c(C(=O)O)cc1OC | 11
O=S(=O)(c1ccc2c(c1)OCCO2)N1CCc2ccccc21 | 18
COc1cc(NC(=S)NCC2CCCO2)c(OC)cc1Cl (stereo unspecified) | 12
O=S(=O)(NCC(c1ccco1)N1CCN(c2ccccc2F)CC1)c1ccc(F)cc1 (stereo unspecified) | 2
O=C(Nc1ccccc1Sc1ccccc1)c1ccc(F)cc1 | 21
CC(C)(C)c1nnc(N/N=C/c2ccccc2O)n(N)c1=O | 7
CC1(CC(=O)NNC(=O)Nc2ccccc2)OCCCO1 | 22
CCOc1ccccc1NC(=O)c1cc(-c2ccncc2)nc2c(Cl)cccc12 | 33
C=CCOc1c(CNc2ccc3[nH]c(=O)[nH]c3c2)cccc1OC | 8
COc1ccccc1OCc1n[nH]c(=S)n1Cc1ccccc1 | 13
NC(=O)CC(NC(=O)Cc1cccc2ccccc12)c1ccc(NC2CCCCCC2)c([N+](=O)[O-])c1 (stereo unspecified) | 14
Oc1ccc(C=Nc2ccccc2-c2nc3ccccc3[nH]2)c(O)c1 | 11
OC1(c2ccc(Cl)cc2)CCN(Cc2nc(-c3cnccn3)no2)CC1 | 10
Nc1c(Br)cc2oc(-c3ccccc3)nc2c1Br | 17
CC1CN(S(=O)(=O)c2cccc(C(=O)OC/C(O)=C(\C#N)c3nc4ccccc4[nH]3)c2)CC(C)O1 (stereo unspecified) | 16
Fc1ccc(-c2nnc(SCc3cccnc3)o2)cc1 | 18

(continued)
SMILES | Biofilm kill mix
CCCCOc1ccc(C(=O)CCN2CCCCC2)cc1 | 12
CCc1cccc(NC(=O)C(NC(=O)C2CCCCC2)C(C)C)c1 (stereo unspecified) | 21
COc1ccc(NC(=O)COC(=O)CNC(=O)C2CCCCC2)cc1 | -4
Brc1ccccc1-c1nnc(SCc2nc3ccccc3s2)o1 | -6
CCN(C(=O)C1CCCN1S(=O)(=O)c1cccc2nsnc12)c1ccccc1 (stereo unspecified) | 23
COc1ccccc1NS(=O)(=O)c1ccc(N/N=C/c2ccccc2OCC(=O)O)c([N+](=O)[O-])c1 | 11
N/C(CN1CCCC1=O)=N\OC(=O)c1ccc(Cl)c(Cl)c1 | 17
Cc1ccc(OCCN2C(=O)C(=O)c3cccc(C)c32)cc1 | 16
COc1ccc(/C=C2\SC(=S)NC2=O)cc1OS(=O)(=O)c1ccc(NC(C)=O)cc1 | 22
COC(=O)C1=C(C)N(c2ccc(OC)c(OC)c2)C(=O)/C1=C\c1cccs1 | 3
CCOC(=O)c1c(N2C(=O)Nc3ccccc3N2O)sc2c1CCCC2 | 9
Cc1cccc(N2C(=O)CC(c3ccc(F)cc3)C3=C2COC3=O)c1 (stereo unspecified) | 20
CCCN1C(=O)c2ccccc2NC1c1cc(OC)c(OC)c(OC)c1 (stereo unspecified) | 12
O=C(Nc1nccs1)C1CC(=O)N(Cc2ccco2)C1 (stereo unspecified) | 11
CCOc1ccc(CN2CCN(Cc3cccn3-c3nccs3)CC2CCO)cc1 (stereo unspecified) | 3
COc1cc([N+](=O)[O-])ccc1NC(=O)COC(=O)c1ccc(NC(N)=O)cc1 | 21
CCC(C)[C@@H](N)C(=O)N/N=C/c1ccc2ncccc2c1 (stereo partly specified) | 8
Nc1nonc1-n1nnc(C(=O)N/N=C/C=C/c2ccccc2)c1CSC1=NCCS1 | 26
CC(=O)c1cc(CN2CCCCC2)cc(OC(C)C)c1 | 21
COc1cc2c(cc1OC)C(C)N(C(=O)c1cccs1)CC2 (stereo unspecified) | 7
C[C@@H]1NC(=O)[C@H](CCCN=C(N)N)NC(=O)c2cc([N+](=O)[O-])cc(I)c2OCC[C@@H](C(=O)NC(CC(=O)O)C(N)=O)NC1=O (stereo partly specified) | 16
C=CCSc1ncc(C#N)c(N)n1 | 20
CCOc1ccc(-c2nc(CCl)cs2)cc1OC | 12
O=C1c2ccccc2-c2c1cccc2C(=O)N1CCCCCC1 | 11
CC(C)CN=C(NS(=O)(=O)c1ccccc1)C(Cl)(Cl)Cl | 15
Nc1ccc(Oc2c(Cl)cccc2Cl)nc1 | 18
Cc1cc(Br)ccc1OCCNCc1ccccc1 | 7
CCc1nnc(NC(=O)c2ccc(OCc3c(C)noc3C)c(OC)c2)s1 | 14
COc1ccc(CS(=O)/C(Cl)=C(/Cl)C(=O)Nc2ccc(OC)nc2)cc1 (stereo unspecified) | 8
CSc1nc2ccc(NC(=O)c3ccc(=O)n(C)n3)cc2s1 | 2
Cc1oc(C(C)(C)C)cc1C(N)=O | -18
COc1ccc(-n2cc(CNCCCn3ccnc3)c(-c3ccccc3Cl)n2)cc1 | 32
C=CCNC(=O)CN1CCC(NC(=O)c2ccco2)CC1 | 4
CCOC(=O)C1CCN(C(=S)Nc2ccccc2)CC1 | 11
O=C(/C=C/c1ccc(Br)cc1)NCc1cccs1 | 15
Cc1ccc(/C=N/NC(=O)c2ccc3nc[nH]c3c2)o1 | 16
CCC(C)N1CCNCC1 (stereo unspecified) | 15
COc1c(Cl)cc(Br)c(OC)c1C(=O)NC(=O)Nc1nc(C)cc(C)n1 | 20
COc1ccc2[nH]c(=O)c(C(=O)O)cc2c1 | 15
Cc1c(C(=O)Cc2ccccc2)n(C)c2ccccc12 | 12
CCOc1cc(S(=O)(=O)n2ccnc2)ccc1Cl | -3
CCC(=O)Nc1cccc(C2=NOC3(C2)C[C@@H](C(N)=O)N(C(=O)c2cc([N+](=O)[O-])cc([N+](=O)[O-])c2)C3)c1 (stereo partly specified) | 15
CCn1c(=O)c2cc(C(=O)Nc3ccccc3OC)sc2c2ccccc21 | 27
C=CCNC(=S)NCc1ccccc1OC | -1
CCOc1ccc(N2C(=O)CN(O)C=C3N=c4ccccc4=C32)cc1 | -8
Cc1c(C(=O)c2ccc(Cl)cc2Cl)cnc2cc3c(cc12)OCO3 | 13
CCN1CCN(C(=S)c2ccc(-c3ccccc3)cc2)CC1 | 11
CC(C)C(C)(C#N)NC(=O)CSc1nc(C2CCCCC2)n(-c2ccccc2)n1 (stereo unspecified) | 7
CC(/C=C/c1ccco1)=N\NC(=O)C(O)c1ccccc1 (stereo unspecified) | 11
N/C(=N\OC(=O)c1cc([N+](=O)[O-])ccc1Cl)c1cccnc1 | 16

In a second layout: results already given
CCOc1cc(S(=O)(=O)n2ccnc2)ccc1Cl
  Biofilm kill mix: -3

CCC(=O)Nc1cccc(C2=NOC3(C2)C[C@@H](C(N)=O)N(C(=O)c2cc([N+](=O)[O-])cc([N+](=O)[O-])c2)C3)c1 (stereo partly specified)
  Biofilm kill mix: 15

CCn1c(=O)c2cc(C(=O)Nc3ccccc3OC)sc2c2ccccc21
  Biofilm kill mix: 27

C=CCNC(=S)NCc1ccccc1OC
  Biofilm kill mix: -1

Going on with the list:
SMILES | Biofilm kill mix
O=C(NC(=S)N1CCN(Cc2ccc3c(c2)OCO3)CC1)c1cccc(Br)c1 | 10
NC(=O)CSc1nnc(-c2cccs2)n1Cc1ccco1 | 24
O=C(COc1ccccc1[N+](=O)[O-])N/N=C/c1ccc(O)cc1 | 18
CC(=C/c1ccccc1)/C=N/NC(=O)c1ccc2nc[nH]c2c1 | 7
O=C1C2C3C=CC(CC3)C2C(=O)N1c1ccccc1[N+](=O)[O-] (stereo unspecified) | 14
Cn1nnc(NC(=S)NC(=O)c2ccc(-c3ccc(Br)cc3)o2)n1 | 11
CCCOC(=O)c1c(NC(=O)C2CCCO2)sc(C(=O)OC)c1C (stereo unspecified) | 5
COc1ccc(/C=N/NC(=O)C(=O)NCc2cccnc2)cc1 | 17
COc1cc(C(=O)NCc2cn3ccccc3n2)cc(OC)c1OC | 14
Cc1ccc(-c2nn(-c3ccccc3)cc2C2CC(c3ccccc3)=NN2C(=O)CCC(=O)O)cc1 (stereo unspecified) | 14
CCOC(=O)N1CCC(N2CCCC(CO)(Cc3cccc(Cl)c3)C2)CC1 (stereo unspecified) | 15
CCCC(=O)Nc1sc(C)c(C)c1C#N | -1
O=C(CNS(=O)(=O)c1c(Cl)cccc1Cl)OCC(=O)c1ccc[nH]1 | 23
CCCCc1ccc(NC(=S)NN2CCOCC2)cc1 | 22
OCCCNc1c2c(nc3cc(-c4ccc(Cl)cc4)nn13)CCC2 | 6
O=[N+]([O-])c1cc(S(=O)(=O)N2CCCC2)ccc1O | 12
Cc1ccc(S(=O)(=O)N2CCOCC2)cc1NC(=O)COc1ncnc2ccccc12 | 7
O=C1C(=Cc2cccn2-c2ccccc2)C(=O)c2ccccc21 | 2
CCCCc1c(C)nc2ccc(C(=O)OCC)cc2c1Cl | 17
COc1ccc(C2(CNS(=O)(=O)c3ccccc3)CCOCC2)cc1 | 9
Cc1csc(NC(=O)CCC(=O)c2cccs2)n1 | 18
COc1ccc2[nH]c(CN3CCC(CO)(CCOc4ccccc4)CC3)c(C)c2c1 | 10
O=C(/C=C/c1ccco1)NCc1ccc(F)cc1 | 19
O=C(O)C1Cc2[nH]cnc2C(c2ccc(F)cc2)N1 (stereo unspecified) | 6
CC(=O)OC[C@H]1O[C@@H](Sc2cccc3cccnc23)[C@H](OC(C)=O)[C@@H](OC(C)=O)[C@@H]1OC(C)=O | 15
COc1ccc(C(c2oc(CO)cc(=O)c2O)c2oc(CO)cc(=O)c2O)cc1OC | 5
N#C/C=C(/c1ccc(F)cc1)N1CCOCC1 | 6
CN(C)S(=O)(=O)c1cccc(-c2nn(-c3ccccc3)cc2/C=C(\C#N)c2nc3ccccc3[nH]2)c1 | -7
CN(/C(=N\S(=O)(=O)c1ccccc1)c1ccccc1)c1ccc(O)cc1 | 16
Cc1cc([N+](=O)[O-])nn1CCCC(=O)Nc1cc(Oc2ccc(F)cc2)cc([N+](=O)[O-])c1 | 17
COc1ccc(-c2csc(NC(=S)NC(=O)c3cccs3)n2)cc1Br | 16
O=C(NCCC1=CCCCC1)C(=O)NCC(c1ccco1)N1CCN(c2ccccc2F)CC1 (stereo unspecified) | 5
COc1cccc(-c2ccc(SCc3ccccn3)nn2)c1 | 7
C=CCNC1=C(Cl)C(=O)c2ccccc2C1=O | 1

Reformatted: results already given.
O=C(NCCC1=CCCCC1)C(=O)NCC(c1ccco1)N1CCN(c2ccccc2F)CC1 (stereo unspecified)
  Biofilm kill mix: 5
C=CCNC1=C(Cl)C(=O)c2ccccc2C1=O
  Biofilm kill mix: 1
COc1ccc(-c2csc(NC(=S)NC(=O)c3cccs3)n2)cc1Br
  Biofilm kill mix: 16

Not all compounds are listed (hit frequency here may not be typical).
